PrP 5UTR inh – inhibition of PrP 5' UTR reporter expression. cell-based PrP 5' UTR mRNA reporter, plate reader. 0.35% of 340,000 active. inhibition, % (no concentration beside the values);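 active means every replicate at 50% or more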;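 further: 0 = median of the neutral control wells; tested in H4 reporter cells; numbers are from one replicate; inactives centre near -14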
ugtP null kill – growth inhibition of ugtP-null S. aureus, primary screen, RN4220 ugtP deletion, OD600; 16 h; some inactives read as strong as hits; AID 1259309, 2017; growth inhibition, % (no concentration beside the values); 0.54% of 330,000 active;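 active means z-score under -3 and OD600 up to 0.15 on both plates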;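 further: plate controls were untreated wells for no effect and antibiotic for full effect; wells of about 80 µL received 100 nL stock; the first replicate is given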
BJeLR lethal – MLPCN primary cell-based screen for lethality selective to Ras in HRASV12 cells; BJeLR (HRASV12) viability, CellTiter-Glo ATP luminescence, 48 h; reference of the scale not given here; inhibition, % (no concentration beside the values); 0.17% of 300,000 active; AID 1554, 2009;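 active means replicate mean above 50%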;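 further: 50 nL library stock added to about 25 µL; numbers are from one replicate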
Bead autofluor – compound fluorescence in toxin protease inhibitor counterscreen. compound autofluorescence counterscreen, microsphere flow cytometry; stronger effect = higher value. fluorescence intensity (concentration not given with the values). 3.1% of 360,000 active. AID 624483;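 active means at least 3 SD above the mean of all compounds, about 16000 in these data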;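 further: 100 nL of 1 mM stock went into each well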
Mtb hypoxia inh – PubChem AID 1159583. M. tuberculosis hypoxia-regulated fluorescent reporter, fluorescence. 0.1% of 300,000 active. fluorescence inhibition, % (test concentration not listed);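 active means 35 to 45% if threefold the growth effect, above 45% if 1.5-fold the growth effect; inactive means the rest, general growth blockers included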;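 further: wells of about 50 µL received 100 nL stock; 0% = vehicle wells and 100% = reference inhibitor wells; whole bacteria with a GFP reporter of the hypoxia response; strong numbers were not always called active; many hits fall short of the cut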
RN4220 kill – growth inhibition of S. aureus RN4220, primary screen, OD600. 16 h. inhibition, % (test concentration not listed). 0.33% of 330,000 active;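 active means z-score of -3 or lower and OD600 up to 0.18 on both plates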;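 further: plate controls were untreated cells for no effect and reference antibiotic for full effect; stock transfer was 100 nL into about 80 µL; one replicate is shown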
Mtb hypoxia inh growth – second read-out of Mtb hypoxia inh, no call of its own (marks repeat the call); growth inhibition, %; measured here: M. tuberculosis growth (absorbance);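 0% = vehicle and 100% = reference antibiotic; read after six days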
* marks the source's active call; other numbers are inactive results; · = not tested or not shown.

[1] Cc1ccsc1C=C1C(=O)c2ccccc2C1=O
[2] COc1ccc2c(c1O)-c1cccc3c1[C@@H](C2)N(C)CC3
[3] CC(=NNC(=O)CN(c1ccc(Oc2ccccc2)cc1)S(C)(=O)=O)C(C)(C)C
[4] COc1ccc(OC)c2[nH]c(C(=O)N3CCC(C(=O)O)CC3)cc12
[5] COC(=O)c1[nH]c2ccccc2c1NC(=O)CN1CCN(Cc2ccc3c(c2)OCO3)CC1
[6] OC(CSc1ccccc1)CN1CCN(c2ccc(Cl)cc2)CC1 (centres undefined)
[7] Cc1ccc(S(=O)(=O)N(C)Cc2ccc(-c3nnc4n3CCC4)cc2)cc1
[8] CCOc1ccc(C2C(C#N)=C(N)Oc3c2c(=O)oc2ccccc32)cc1 (centres undefined)
Compound	1	2	3	4	5	6	7	8
BJeLR lethal	-1	7	·	1	-1	·	-1	8
Mtb hypoxia inh growth	5	·	6	1	-1	6	16	·
Bead autofluor	3809	5398	·	3866	3519	2948	4751	24671*
ugtP null kill	-8	·	0	6	-6	2	-4	·
RN4220 kill	1.7	·	4.6	0.0	-13	-1.9	-1.8	·
Mtb hypoxia inh	7	·	10	15	4	16	10	·
PrP 5UTR inh	-20	-13	·	2	-15	-15	-2	15

[9] CCOC(=O)CNC(=O)CNC(=O)Cn1ccc2ccccc2c1=O
[10] O=C(NCc1cccs1)C1CC(c2ccc(Cl)c(Cl)c2)=NO1 (centres undefined)
[11] CN1C(=O)NC(c2ccccc2Cl)C2=C1CC(C)(C)CC2=O (centres undefined)
[12] CO/N=C/C(C#N)=C/c1ccc(OC)c(OC)c1
[13] CCCCCCc1cc2cc(C(=O)NC)c(=N)oc2cc1O
[14] COc1ccc(NC(=O)COC(=O)C23CC4CC(CC(NC(C)=O)(C4)C2)C3)cc1S(=O)(=O)N1CCOCC1
[15] CC(=O)C1C2c3ccccc3OC1(C)N=c1sc(=Cc3cn(C)nc3C)c(=O)n12 (centres undefined)
[16] COc1ccc(-c2nc3cc(NC(=O)Cc4ccc(OC)c(OC)c4)ccc3o2)cc1
Compound	9	10	11	12	13	14	15	16
BJeLR lethal	0	3	3	-11	-6	·	·	13
Mtb hypoxia inh growth	5	3	7	·	-2	8	9	6
Bead autofluor	3591	4591	4418	4412	4262	3406	·	16446*
ugtP null kill	-1	3	9	·	-21	7	-3	-3
RN4220 kill	1.0	1.8	2.9	·	1.6	0.8	-0.6	20
Mtb hypoxia inh	1	8	0	·	-74	11	3	1
PrP 5UTR inh	-6	-38	0	4	-17	-36	·	-8

[17] COC(=O)c1cc(CNC(=O)CCCSc2ccccc2)ccc1OC
[18] CSc1ncccc1C(=O)NCCc1ccccc1F
[19] Cc1ccc(S(=O)(=O)N2CCC(=O)N(CCOCc3ccccc3)CC2)cc1
[20] CCOc1ccc(NC(=S)Nc2ccc3nsnc3c2)cc1
[21] COC(=O)c1cc(=O)n2c(sc3ccccc32)c1C#N
[22] O=C(CCN1C(=O)[C@@H]2Cc3ccccc3CN2C1=O)NCc1ccccc1
[23] CC1CCN(C(=O)CN(c2ccc3c(c2)OCCO3)S(=O)(=O)c2ccccc2)CC1
[24] O=C(O)c1ccccc1C(=O)N1N=C(c2ccccc2)CC1c1ccccc1O (centres undefined)
Compound	17	18	19	20	21	22	23	24
BJeLR lethal	-7	-10	4	-1	-1	-8	-9	4
Mtb hypoxia inh growth	-2	-3	5	·	3	1	3	6
Bead autofluor	3578	3214	3794	2734	6146	4962	3903	3575
ugtP null kill	6	-5	-8	-3	6	0	-1	6
RN4220 kill	-2.4	2.2	4.7	-0.1	0.9	-1.9	5.3	5.6
Mtb hypoxia inh	-1	8	6	·	10	-7	17	13
PrP 5UTR inh	-19	·	-7	-42	-23	-5	-22	-32

[25] COc1ccc(OCC(=O)N/N=C/C(C)=C/c2ccco2)c(Br)c1
[26] COc1ccccc1NS(=O)(=O)c1ccc(C(=O)N2CCCCCC2)cc1
[27] O=S(=O)(Nc1cc(Cl)ccc1N1CCCCC1)c1cccs1
[28] COc1cc(C(=O)NCC(=O)OC(C)C(=O)Nc2ncc(Cl)cc2Cl)cc(OC)c1OC (centres undefined)
[29] COc1ccc(C)cc1NC(=O)CSc1nnc(COc2ccc(Cl)cc2)n1Cc1ccco1
[30] CCOC(=O)c1c(C)[nH]c(C(=O)N/N=C\c2ccccc2Cl)c1C
[31] COC(=O)c1ccc(COC(=O)C23CC4CC(CC(O)(C4)C2)C3)o1
[32] COC(=O)c1cc(Cl)cc2c(C)c(C3(O)CCCCC3)[nH]c12
Compound	25	26	27	28	29	30	31	32
BJeLR lethal	8	·	-13	3	-3	-1	-5	-5
Mtb hypoxia inh growth	·	2	6	7	3	·	8	-3
Bead autofluor	3617	2987	3516	3038	9910	2212	5173	3736
ugtP null kill	·	1	50	7	-26	·	-13	-22
RN4220 kill	·	9.5	22	3.3	-3.5	·	7.5	-19
Mtb hypoxia inh	·	9	22	9	4	·	-3	5
PrP 5UTR inh	5	2	-6	12	-28	-35	-65	-30

[33] COc1ccc(C(=O)Cc2ccc(OC)c(OC)c2)c(OC)c1
[34] CCN(CC)CCCNc1ncnc2ccccc12
[35] Cc1nonc1OCC(C)(COc1nonc1C)NC(=O)c1ccc(Cl)cc1
[36] O=C(O)C1CCN(c2ccc(S(=O)(=O)N3CCOCC3)cc2[N+](=O)[O-])CC1
[37] COc1ccc(N2CCN(S(=O)(=O)c3ccc(-c4cc(C)no4)s3)CC2)cc1
[38] Cc1cccc(NC(=O)OC2CN3CCC2CC3)c1 (centres undefined)
[39] O=c1[nH]cnc2c1ncn2[C@@H]1O[C@H](CO)[C@@H](O)[C@H]1O
[40] COC(=O)c1cnn2c(C(F)(F)F)cc(-c3ccccc3)nc12
Compound	33	34	35	36	37	38	39	40
BJeLR lethal	-5	12	1	10	6	4	5	1
Mtb hypoxia inh growth	8	12	-10	2	7	10	·	13
Bead autofluor	8122	5257	5560	4611	4061	4134	6989	9851
ugtP null kill	-3	3	-7	1	10	-2	·	-2
RN4220 kill	6.6	6.7	1.0	4.1	4.7	0.5	·	1.2
Mtb hypoxia inh	14	-10	5	10	1	-3	·	8
PrP 5UTR inh	-4	-1	-31	-12	-16	-31	79*	-11

4 entries picked at random from those above:
[38] Cc1cccc(NC(=O)OC2CN3CCC2CC3)c1 (centres undefined)
[37] COc1ccc(N2CCN(S(=O)(=O)c3ccc(-c4cc(C)no4)s3)CC2)cc1
[34] CCN(CC)CCCNc1ncnc2ccccc12
[39] O=c1[nH]cnc2c1ncn2[C@@H]1O[C@H](CO)[C@@H](O)[C@H]1O
Compound	38	37	34	39
BJeLR lethal	4	6	12	5
Mtb hypoxia inh growth	10	7	12	·
Bead autofluor	4134	4061	5257	6989
ugtP null kill	-2	10	3	·
RN4220 kill	0.5	4.7	6.7	·
Mtb hypoxia inh	-3	1	-10	·
PrP 5UTR inh	-31	-16	-1	79*

Next section:
[41] COc1ccc(C(O)Cn2cc([N+](=O)[O-])nc2C)cc1 (centres undefined)
[42] O=C(Cn1ccc([N+](=O)[O-])n1)Nc1nc2ccccc2s1
[43] COc1cc(C(=O)N2c3ccccc3CC2C)cc(OC)c1OC (centres undefined)
[44] O=C(COc1ccccc1Br)c1ccc2c(c1)OCO2
[45] CC(C)N=C1SCC(C)(C=NO)S1 (centres undefined)
[46] CC[C@]12c3[nH]c4ccc(Cl)cc4c3CCN1C(=O)[C@@H](CC(=O)NCCCOC)C[C@@H]2C(=O)N1CCN(C(=O)C2CC2)CC1
[47] CN(C(=O)CSc1cn(CC(=O)N2CCOCC2)c2ccccc12)c1ccccc1
[48] COc1ccccc1NC(=S)NC1CCCCC1
Compound	41	42	43	44	45	46	47	48
BJeLR lethal	7	1	-8	-12	·	·	-12	-3
Mtb hypoxia inh growth	-2	1	·	2	11	4	2	0
Bead autofluor	3568	3614	4785	6387	·	3806	5334	2446
ugtP null kill	2	4	-8	9	2	1	5	11
RN4220 kill	1.8	3.0	3.9	6.2	2.5	-1.9	6.4	1.6
Mtb hypoxia inh	16	9	·	15	7	2	11	-1
PrP 5UTR inh	-48	1	-11	-38	·	3	-12	-17

[49] OC(Cn1c2ccccc2c2ccccc21)C[n+]1cccc2ccccc21 (centres undefined)
[50] Fc1cc(F)cc(NC(=S)N2CCC(c3ccccc3)C2)c1 (centres undefined)
[51] CC(=O)c1ccc(NC(=O)c2cc(Cl)nc3ccccc23)cc1
[52] CCOC(=O)N1CCC(NCCNC(=O)c2ccco2)CC1
[53] COc1ccc(CCNC(=O)CC(C)=NNC(=O)C23CC4CC(CC(C4)C2)C3)cc1OC
[54] CCOc1ccc(CCNC(=O)c2ccc(N3CCCC3=O)cc2)cc1OCC
[55] Oc1[nH]c2ccccc2c1C1=NCCCC1
[56] Cc1c(NC(=O)COC(=O)c2cc(-c3ccc(-c4ccccc4)cc3)nc3ccccc23)c(=O)n(-c2ccccc2)n1C
Compound	49	50	51	52	53	54	55	56
BJeLR lethal	1	5	-3	7	·	-7	8	33
Mtb hypoxia inh growth	13	7	1	4	1	19	5	-3
Bead autofluor	20032*	4552	2215	4369	·	4327	3415	2176
ugtP null kill	-19	2	-9	7	6	8	-13	4
RN4220 kill	-6.3	6.4	2.9	0.0	1.9	5.6	-2.6	5.5
Mtb hypoxia inh	14	7	3	-3	16	8	9	0
PrP 5UTR inh	-12	-6	-11	-21	·	-27	4	14

[57] CCOC(=O)c1c(C)[nH]c(C)c1C(=O)COC(=O)CNC(=O)C1CCCCC1
[58] O=C(Nc1cccc(Br)c1)c1ccc2snnc2c1
[59] Cc1c(C)c2c(OCC(=O)N3CCC(C(N)=O)CC3)cc3c(c2oc1=O)CCC(C)(C)O3
[60] CCN1CCN(c2ccc(S(=O)(=O)N3CCCCC3)cc2NC(=O)COc2ccccc2)CC1
[61] C/C(=N\NC(=O)c1ccccc1O)c1cccs1
[62] COc1ccc2c(c1)CCc1c(C(=O)Nc3cc(C)n(Cc4ccc(Cl)cc4)n3)noc1-2
[63] CS(=O)(=O)c1cccc(C(=O)Nc2ccc(S(=O)(=O)N3CCCCC3)cc2)c1
[64] COc1ccccc1Nc1nccc(N(C)C)c1C#N
Compound	57	58	59	60	61	62	63	64
BJeLR lethal	0	2	2	0	14	3	·	-10
Mtb hypoxia inh growth	6	1	·	-16	·	-1	10	0
Bead autofluor	3945	6318	5440	6973	4470	10982	7505	4949
ugtP null kill	-2	-11	9	0	·	-2	-1	9
RN4220 kill	2.6	-0.6	2.5	3.4	·	5.4	3.7	5.7
Mtb hypoxia inh	7	7	·	0	·	2	-6	-1
PrP 5UTR inh	-26	-30	-5	-22	-19	-12	3	-21

[65] O=C(NC(=S)Nc1ccccc1N1CCCCC1)c1cccs1
[66] Oc1ccc(Cl)cc1C=Nc1nc2ccccc2[nH]1
[67] Cc1nc2scc(-c3ccc(C(C)C)cc3)c2c(=O)n1N
[68] COc1ccc(-c2nnn(CC(=O)N(CC(=O)NC3CCCC3)Cc3cccs3)n2)cc1OC
Compound	65	66	67	68
BJeLR lethal	-12	·	4	-1
Mtb hypoxia inh growth	2	2	6	9
Bead autofluor	2066	·	4741	24334*
ugtP null kill	-22	5	11	1
RN4220 kill	-7.0	6.4	4.0	2.2
Mtb hypoxia inh	0	-1	-6	4
PrP 5UTR inh	-23	·	-14	-14
